Bioassay records as filed in PubChem.
Vaccinia inh = blocks a specific stage of Vaccinia orthopoxvirus infection. Vaccinia-infected cells, mCherry/Venus stage reporter fluorescence; stronger effect = lower value; some inactives read as strong as hits. activity change (mCherry), % (concentration not given with the values). hit rate 0.01% among 89,000;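 active means mCherry past -33% and 40 or more points under the early reporter, replicates agreeing; inconclusive means past -33% without that gap or agreement; tested in A549 cells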;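 further: scaled between vehicle wells and reference inhibitor wells; 23 nL library stock went into each well; one replicate is shown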
Vaccinia inh Venus = recorded beside Vaccinia inh, whose call it bears; activity change (Venus), %; measured here: Venus reporter, other viral stage;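 negative = less Venus signal; first of two replicates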
The depositor's hits bear a star; ? = inconclusive; . = no result given. These rows are one share of the data, so the mix of outcomes need not match the whole.

SMILES	Vaccinia inh Venus	Vaccinia inh
C[C@@H]1CCCCO[C@H](CN(C)C(=O)CCCN(C)C)[C@@H](C)CN([C@H](C)CO)C(=O)c2cc(NC(=O)Nc3ccc(F)cc3)ccc2O1	5.7	25.4
C[C@@H]1CCCCO[C@H](CN(C)Cc2ccc(Cl)c(Cl)c2)[C@@H](C)CN([C@@H](C)CO)C(=O)c2cc(NS(=O)(=O)c3ccc(Cl)cc3)ccc2O1	.	?
C[C@@H]1CN([C@H](C)CO)C(=O)c2cc(NC(=O)Cc3ccccc3)ccc2O[C@@H](C)CCCCO[C@@H]1CN(C)C(=O)C1CCCCC1	-1.1	1.4
O=C(C[C@@H]1C[C@H]2c3cc(NS(=O)(=O)c4ccccc4)ccc3O[C@H]2[C@H](CO)O1)NC1CCCC1	0.5	-0.5
C[C@H]1CN([C@@H](C)CO)C(=O)Cc2cc(NS(=O)(=O)c3cccs3)ccc2O[C@@H]1CN(C)S(=O)(=O)c1ccc(Cl)cc1	-1.5	-4.6
C[C@@H]1CN([C@@H](C)CO)S(=O)(=O)c2ccc(C3=CCCCC3)cc2O[C@@H]1CN(C)C(=O)c1ccc(F)cc1	.	?
C[C@H]1CCCCO[C@@H](CN(C)C(=O)C2CCCCC2)[C@@H](C)CN([C@@H](C)CO)C(=O)c2cc(NC(=O)Nc3ccccc3)ccc2O1	-28.7	-30.2
C[C@@H]1CN([C@@H](C)CO)C(=O)c2cccc(NS(=O)(=O)c3ccc(Cl)cc3)c2O[C@@H]1CN(C)CC1CCCCC1	1.4	0.5
C[C@@H]1CN([C@H](C)CO)C(=O)c2cc(NC(=O)CCCN(C)C)ccc2O[C@@H]1CN(C)C(=O)Nc1ccc(F)cc1	13.3	23.8
C[C@@H]1CCCCO[C@H](CN(C)C(=O)Nc2cccc3ccccc23)[C@H](C)CN([C@H](C)CO)C(=O)c2cc(NS(C)(=O)=O)ccc2O1	7.6	9.8
COC(=O)[C@@H]1[C@@H](CO)[C@@H]2Cn3c(ccc(-c4ccc(F)cc4)c3=O)[C@H]1N2Cc1cccnc1	3.8	-5.5
CCCC#Cc1cnc2c(c1)C(=O)N([C@H](C)CO)C[C@H](C)[C@@H](CN(C)C(=O)CN1CCOCC1)O2	5.5	9.7
CS(=O)(=O)Nc1ccc2c(c1)[C@H]1C[C@@H](CC(=O)NC3CCCCC3)O[C@@H](CO)[C@H]1O2	4.6	14.0
C[C@H](CO)N1C[C@H](C)[C@H](CN(C)Cc2cccnc2)Oc2ncc(-c3ccccc3)cc2C1=O	1.2	20.7
C[C@@H]1CCCCO[C@H](CN(C)S(=O)(=O)c2ccc(F)cc2)[C@H](C)CN([C@@H](C)CO)C(=O)c2cc(NC(=O)c3ccncc3)ccc2O1	-12.8	-13.2
Cc1noc(C)c1S(=O)(=O)N(C)C[C@H]1OCCCC[C@@H](C)Oc2ccc(NC(=O)Nc3ccccc3)cc2C(=O)N([C@@H](C)CO)C[C@H]1C	-1.1	-7.0
COc1ccc2c3c([nH]c2c1)[C@@H](CO)N(C(=O)C1CCC1)CC31CCN(Cc2nccs2)CC1	-2.7	-2.9
C/C=C/c1ccc2c(c1)O[C@H](CN(C)Cc1ccc(F)cc1)[C@@H](C)CN([C@@H](C)CO)S2(=O)=O	.	?
C[C@H](CO)N1C[C@H](C)[C@@H](CN(C)S(=O)(=O)c2ccccc2)OCCCC[C@H](C)Oc2ccc(NC(=O)Nc3ccc(C(F)(F)F)cc3)cc2C1=O	18.3	-9.0
O=C(C[C@H]1C[C@@H]2c3cc(NC(=O)c4cccnc4)ccc3O[C@@H]2[C@@H](CO)O1)NCC(F)(F)F	4.0	6.3
C[C@H](CO)N1C[C@H](C)[C@@H](CN(C)Cc2ccc(-c3ccccc3)cc2)Oc2ccc(N(C)C)cc2CC1=O	.	?
C[C@@H]1CN([C@H](C)CO)C(=O)c2c(c3ccccc3n2C)-c2ccccc2CO[C@@H]1CN(C)C(=O)NC1CCCCC1	.	?
O=C(Cc1cccnc1)N1CC(=O)N2[C@H](CO)[C@H](c3ccc(C#CC4CC4)cc3)[C@H]2C1	-8.3	-10.8
CCCNC(=O)C[C@H]1CC[C@H]2[C@H](COc3ccc(NC(=O)C4CCOCC4)cc3C(=O)N2C)O1	8.0	0.3
COc1cccc(-c2ccc3c(c2)O[C@@H](CN(C)C)[C@@H](C)CN([C@@H](C)CO)S3(=O)=O)c1	-8.8	-11.5
COc1ccc(S(=O)(=O)Nc2ccc3c(c2)CC(=O)N([C@@H](C)CO)C[C@@H](C)[C@@H](CN(C)C(=O)Nc2cccc4ccccc24)O3)cc1	16.4	27.1
CC(=O)N1[C@@H]2c3cccc(=O)n3C[C@@H]2[C@@H](CO)[C@@H]1C(=O)N[C@@H](C)c1ccccc1	3.2	12.2
C=C1C(=O)OC2/C=C(/C)CC/C=C(/C)CCC12 (stereo not given)	4.7	8.1
C[C@H](CO)N1C[C@H](C)[C@@H](CN(C)Cc2ccc(-c3ccccc3)cc2)Oc2ccc(NC(=O)c3ccncc3)cc2CC1=O	.	?
C[C@@H]1CN([C@H](C)CO)C(=O)Cc2cc(NC(=O)Nc3cccc4ccccc34)ccc2O[C@H]1CN(C)S(=O)(=O)c1cn(C)cn1	3.0	1.3
COc1ccc2c3c(n(C)c2c1)[C@@H](CO)N(C(=O)C1CCCC1)CC31CN(C(=O)CC2CC2)C1	-5.8	5.8
O=C(Nc1cccc(F)c1)N1CC(=O)N2[C@H](C1)[C@@H](c1ccc(C#Cc3cccnc3)cc1)[C@@H]2CO	-9.7	-14.3

Overlap with the part before: four entries, then new ones.
SMILES	Vaccinia inh Venus	Vaccinia inh
C[C@H](CO)N1C[C@H](C)[C@@H](CN(C)Cc2ccc(-c3ccccc3)cc2)Oc2ccc(NC(=O)c3ccncc3)cc2CC1=O	.	?
C[C@@H]1CN([C@H](C)CO)C(=O)Cc2cc(NC(=O)Nc3cccc4ccccc34)ccc2O[C@H]1CN(C)S(=O)(=O)c1cn(C)cn1	3.0	1.3
COc1ccc2c3c(n(C)c2c1)[C@@H](CO)N(C(=O)C1CCCC1)CC31CN(C(=O)CC2CC2)C1	-5.8	5.8
O=C(Nc1cccc(F)c1)N1CC(=O)N2[C@H](C1)[C@@H](c1ccc(C#Cc3cccnc3)cc1)[C@@H]2CO	-9.7	-14.3
CC(C)NC(=O)N(C)C[C@H]1Oc2ccc(NC(=O)Nc3ccc4c(c3)OCO4)cc2CC(=O)N([C@@H](C)CO)C[C@H]1C	1.1	6.8
COCC(=O)Nc1ccc2c(c1)C(=O)N(C)[C@H]1CC[C@@H](CC(=O)NCc3ccccc3F)O[C@H]1CO2	-2.4	-6.1
C[C@@H]1CN([C@@H](C)CO)C(=O)c2cccc(NC(=O)NC3CCCCC3)c2O[C@H]1CN(C)C(=O)NC1CCCCC1	-0.5	-5.7
CC(=O)N(C)C[C@@H]1Oc2ncc(-c3ccccc3C)cc2C(=O)N([C@@H](C)CO)C[C@H]1C	-2.2	0.8
C/C=C/c1ccc([C@H]2[C@@H](CO)N3CCCCN(S(=O)(=O)c4cccs4)C[C@H]23)cc1	.	?
CO[C@H]1CN(C)C(=O)c2ccc(NS(=O)(=O)c3cccc(C)c3)cc2OC[C@@H](C)NC[C@@H]1C	-0.1	16.2
C[C@@H]1CN([C@@H](C)CO)S(=O)(=O)c2ccc(C#CC(C)(C)O)cc2O[C@@H]1CN(C)C(=O)CC1CC1	-0.6	-6.2
C[C@@H]1CN([C@@H](C)CO)C(=O)Cc2cc(NS(=O)(=O)c3ccc(F)cc3)ccc2O[C@@H]1CN(C)S(C)(=O)=O	4.0	-10.7
O=C(NCC(F)(F)F)[C@H]1[C@H](CO)[C@H]2Cn3c(cccc3=O)[C@H]2N1C(=O)c1ccccc1F	12.9	22.2
COc1ccccc1NC(=O)N(C)C[C@H]1Oc2ncc(Br)cc2C(=O)N([C@@H](C)CO)C[C@@H]1C	2.4	5.3
C[C@@H]1CCCCO[C@H](CN(C)C(=O)Nc2ccc(F)cc2)[C@@H](C)CN([C@@H](C)CO)C(=O)c2cc(NC(=O)C3CCCCC3)ccc2O1	-12.7	-26.7
COc1ccc(S(=O)(=O)Nc2ccc3c(c2)C(=O)N([C@H](C)CO)C[C@H](C)[C@@H](CN(C)C(=O)Nc2cccc4ccccc24)O3)cc1	20.9	17.6
C[C@H]1CN([C@@H](C)CO)C(=O)c2cc(NC(=O)Nc3ccc(C(F)(F)F)cc3)ccc2O[C@@H]1CN(C)S(=O)(=O)c1cn(C)cn1	1.7	5.1
CC(C)NC(=O)Nc1cccc2c1O[C@H](CN(C)Cc1ccc(Cl)c(Cl)c1)[C@H](C)CN([C@H](C)CO)C2=O	-6.1	-11.0
O=C(C[C@@H]1C=C[C@H](NC(=O)c2ccc3c(c2)OCO3)[C@@H](CO)O1)NCc1ccc(F)cc1	21.2	18.5
O=C([C@@H]1[C@@H](CO)[C@@H]2Cn3c(cccc3=O)[C@H]1N2S(=O)(=O)c1ccccc1F)N1CCOCC1	12.3	23.8
Cc1noc(C)c1S(=O)(=O)N(C)C[C@H]1OCCCC[C@H](C)Oc2ccc(NS(=O)(=O)c3cccs3)cc2C(=O)N([C@@H](C)CO)C[C@@H]1C	.	?
COc1ccc2c3c(n(C)c2c1)[C@@H](CO)N(C(=O)NC1CCCC1)CC31CCN(C)CC1	-1.9	-3.6
CCS(=O)(=O)NCC[C@H]1CC[C@H](NS(=O)(=O)c2cccc(Cl)c2)[C@H](CO)O1	-3.5	-0.6
Cc1noc(C)c1NC(=O)Nc1ccc2c(c1)C(=O)N([C@@H](C)CO)C[C@@H](C)[C@H](CN(C)C(=O)Nc1ccccc1)OCCCC[C@@H](C)O2	10.4	16.7
COc1ccc(CN(C)C[C@@H]2OCCCC[C@H](C)Oc3ccc(NC(=O)c4ccncc4)cc3C(=O)N([C@H](C)CO)C[C@H]2C)cc1	8.8	3.6
C[C@@H]1CCCCO[C@@H](CN(C)C(=O)C2CCCCC2)[C@@H](C)CN([C@@H](C)CO)C(=O)c2cc(NC(=O)Nc3ccccc3)ccc2O1	-7.0	0.4
CNC(=O)C[C@@H]1CC[C@H]2[C@@H](COc3ccc(NC(=O)Nc4ccccc4)cc3C(=O)N2C)O1	3.0	-4.7
CCc1csc(N2[C@H](CO)[C@@H](c3ccc(-c4cccc(F)c4)cc3)[C@@H]2C#N)n1	-4.5	3.4
CO[C@@H]1CN(C)C(=O)c2cc(NC(=O)Cc3ccccc3)ccc2OC[C@H](C)N(C(C)=O)C[C@@H]1C	12.4	11.9
COCC(=O)N(C)C[C@@H]1Oc2cc(C#Cc3ccccc3)ccc2S(=O)(=O)N([C@H](C)CO)C[C@H]1C	-25.8	-27.4
CCC(=O)Nc1ccc2c(c1)OC[C@H](C)N(Cc1ccccc1)C[C@@H](C)[C@H](OC)CN(C)C2=O	-25.5	-23.5
CO[C@H]1CN(C)C(=O)c2ccc(NC(C)=O)cc2OC[C@@H](C)N(Cc2ccccc2C(=O)O)C[C@@H]1C	-3.0	8.4
CCCN(C)C[C@@H]1OCCCC[C@H](C)Oc2ccc(NC(=O)Nc3ccc(F)cc3)cc2C(=O)N([C@H](C)CO)C[C@@H]1C	-21.7	-33.1
CO[C@@H]1CN(C)C(=O)c2ccc(NC(=O)c3cc(C)on3)cc2OC[C@H](C)N(C(C)=O)C[C@@H]1C	31.5	33.8
COCC(=O)N1CC(=O)N2[C@@H](CO)[C@@H](c3ccc(C#CCc4ccccc4)cc3)[C@@H]2C1	1.5	19.6
Cc1noc(C)c1S(=O)(=O)Nc1ccc2c(c1)C(=O)N([C@@H](C)CO)C[C@@H](C)[C@@H](CN(C)S(=O)(=O)c1ccccc1)OCCCC[C@@H](C)O2	.	?
COc1ccc(NC(=O)Nc2ccc3c(c2)CC(=O)N([C@H](C)CO)C[C@@H](C)[C@H](CN(C)Cc2ccc4c(c2)OCO4)O3)cc1	-9.4	-2.8
Cc1ccc(S(=O)(=O)N(C)C[C@@H]2Oc3ccc(NS(=O)(=O)c4c(C)noc4C)cc3C(=O)N([C@@H](C)CO)C[C@H]2C)cc1	8.0	2.7
C[C@H](CO)N1C[C@H](C)[C@H](CN(C)C(=O)Nc2ccc(F)cc2)Oc2ccc(NC(=O)C3CCCCC3)cc2C1=O	4.4	7.2
CS(=O)(=O)Nc1ccc2c(c1)[C@H]1C[C@@H](CC(=O)NC3CCCC3)O[C@@H](CO)[C@H]1O2	3.1	7.2
C[C@@H]1CCCCO[C@H](CN(C)S(C)(=O)=O)[C@@H](C)CN([C@H](C)CO)C(=O)c2cc(NC(=O)Nc3ccc4c(c3)OCO4)ccc2O1	11.0	9.2
COc1ccc(NC(=O)Nc2ccc3c(c2)C(=O)N([C@@H](C)CO)C[C@H](C)[C@@H](CN(C)C(=O)NC2CCCCC2)OCCCC[C@H](C)O3)cc1	-10.4	-15.8
Cc1ccc(-c2ccc([C@H]3[C@@H](CO)N4C(=O)CN(S(=O)(=O)c5cccc(F)c5)C[C@@H]34)cc2)cc1	-20.6	-25.2
CN(C)CC(=O)N[C@@H]1CC[C@@H](CCNC(=O)Nc2ccc(Cl)cc2)O[C@H]1CO	-1.4	-15.3
Cc1noc(C)c1NC(=O)N(C)C[C@@H]1Oc2ccc(NS(=O)(=O)c3cn(C)cn3)cc2C(=O)N([C@H](C)CO)C[C@H]1C	11.6	13.7
